Source: PubChem BioAssay
PINK1 modulator: modulators of PINK1 expression; Potency, µM (series often up to 76.6 µM), inactives show at the highest dose activation (PINK1 increase), hits mostly activators; 0.2% of 410,000 active; PINK1 immunofluorescence, high-content cytometry, 24 h; AID 624263; active = well fitted activation curve with a large enough effect; inconclusive = small, poorly fitted or top-dose-only effect; inactive = flat fitted curve, though single readings scatter; cell line not stated here;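 further: potency means the concentration at half of the fitted maximal effect; % of control where 0% means no effect; nearly all actives have a fitted effect of over 65% in size; a mitochondrial uncoupler was the plate control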
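Fluorescence from anti-PINK1 antibody, together with nuclear and cell stains, was scanned on a laser-scanning cytometer. Before staining, stable-line cells were incubated 24 hours with compounds at 5 concentrations; primary antibody 12 h at 10 degrees C.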
Menin-MLL FL inh: displaces fluorescein MLL peptide from human menin; Fluorescence polarization, fluorescein-MLL peptide displacement from menin; FP activity change, % at 61.4 µM; 290,000 tested, under 10 active; AID 1766; inconclusive = falling polarisation curve, or a change in total fluorescence; inactive = total fluorescence flat and polarisation flat or rising; no compound was filed as active; the % refers to the polarisation; negative = inhibition;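 further: % of control where 0% means no effect; inhibitors lower the polarisation; unlabelled MLL peptide was the positive control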
ClpP mod: qHTS Assay for Activators of ClpP; ATP-dependent Clp protease proteolytic subunit (Bacillus subtilis (strain 168)), P80244; purified B. subtilis ClpP, FRET peptide cleavage, 20 min; Potency, µM (top dose mostly 57.5 µM), inactives show at the top dose activity change, negative = active; 1.9% of 340,000 active; AID 651965, 2013; active = well fitted falling curve with a large enough effect; inconclusive = small, poorly fitted or top-dose-only effect; inactive = no such curve, though single readings can be large or run the other way; further: potency means the concentration at half of the fitted maximal effect; the source files actives as falling curves though it sought activators and does not explain the sign; nearly all actives have a fitted effect of over 65% in size; many hits overshoot -100%
Target sequence (P80244 whole entry, looked up): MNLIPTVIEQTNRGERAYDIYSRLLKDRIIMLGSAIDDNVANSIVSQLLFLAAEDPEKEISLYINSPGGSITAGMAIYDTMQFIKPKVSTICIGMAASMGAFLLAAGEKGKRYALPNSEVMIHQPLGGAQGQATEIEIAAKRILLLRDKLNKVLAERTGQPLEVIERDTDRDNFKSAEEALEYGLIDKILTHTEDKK
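FRET quenching reversal measured ClpP activation: 10 microg/mL B. subtilis ClpP at pH 8 with the FRET-FV decapeptide, read at 430 nm after 320 nm excitation. The 20-min minus 0-min signal was scaled between DMSO/no-enzyme wells and ADEP (5.8 microM final).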
D2 ag: human D2 receptor agonism in beta-arrestin assay. DiscoveRx PathHunter D2 beta-arrestin, luminescence, 90 min; 100% = 57 uM dopamine signal. 0.084% of 360,000 active. P14416. activation, % (test concentration not listed); in the data active = activation above about 40%; inconclusive = about 15% to 40%; inactive = below about 15%; further: compound concentration not given in the record; the text of the record calls up to 30% inactive
Target sequence (P14416 whole entry, looked up): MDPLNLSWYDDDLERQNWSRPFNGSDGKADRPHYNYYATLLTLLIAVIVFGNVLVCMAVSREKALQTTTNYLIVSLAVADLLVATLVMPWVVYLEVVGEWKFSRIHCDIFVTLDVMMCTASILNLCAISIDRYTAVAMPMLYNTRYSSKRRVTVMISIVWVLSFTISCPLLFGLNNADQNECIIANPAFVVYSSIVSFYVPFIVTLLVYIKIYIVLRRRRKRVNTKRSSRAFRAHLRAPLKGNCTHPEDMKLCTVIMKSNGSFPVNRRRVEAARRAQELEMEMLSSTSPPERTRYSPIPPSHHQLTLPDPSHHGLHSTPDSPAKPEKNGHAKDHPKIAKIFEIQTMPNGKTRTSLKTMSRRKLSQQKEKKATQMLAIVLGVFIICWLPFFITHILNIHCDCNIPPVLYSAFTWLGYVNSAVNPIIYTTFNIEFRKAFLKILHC
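Agonist mode: compounds alone added to overnight-plated D2 PathHunter cells for 90 min at 37 C, with 57 uM final dopamine (EC100) defining full response. Beta-arrestin recruitment detected by chemiluminescent reagent, read after 1 h at ambient temperature.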
gsp antagonist: gsp mutant antagonism; gsp-mutant cells, cAMP HTRF, 30 min; control for the full effect not named in the record; Potency, µM (series often up to 76.9 µM), for the others: at the highest dose activity change, negative = inhibition, usual class: inhibitors; 0.4% of 340,000 active; active = falling curve of any shape with a large fitted effect; inconclusive = falling curve, mostly with a smaller effect; inactive = flat or rising curve; cell line not stated here;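 further: intracellular cAMP measured with PDE inhibitor Ro 20-1724 present during compound exposure; potency means the concentration at half of the fitted maximal effect; on the % scale 0 is the no-effect control and ±100 the full control effect; nearly all actives have a fitted effect of over 65% in size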
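Cells in G418 medium, seeded 16-24 h, 37C; buffer exchange to DPBS + 1 mM CaCl2, 0.5 mM MgCl2, 0.05% BSA; cpds in DMSO + […] (300 uM stock), 30 min 37C; HTRF cAMP detection.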
gsp ag: gsp mutant agonism; 0.13% of 340,000 active; gsp mutant cells, cAMP HTRF, 30 min; control for the full effect not named in the record; Potency, µM (series often up to 76.9 µM), inactives show top-dose activation (cAMP increase), most hits filed as activators; active = well fitted activation curve with a large enough effect; inconclusive = small, poorly fitted or top-dose-only effect, or another doubt; inactive = no such curve, though single readings can be large or run the other way; cell line not stated here;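 further: phosphodiesterase inhibitor Ro 20-1724 added with compounds to block cAMP breakdown; potency means the concentration at half of the fitted maximal effect; nearly all actives have a fitted effect of over 60% in size; about a fifth of the inactives were tested at one dose only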
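Cells in DMEM/10% FBS with G418 were pretreated with compounds in DMSO plus […] (300 uM stock) for 30 min at 37C. cAMP was measured by HTRF (cAMP-d2 plus anti-cAMP antibody-K) after 30 min at room temperature.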
Sfp PPTase inh: blocks B. subtilis Sfp PPTase activity; Potency, µM, for the others: max response, negative = inhibition, hits mostly inhibitors; Q9F4F7; Biochemical Sfp PPTase activity, qHTS; 3.5% of 310,000 active; active means well fitted inhibition curve with a large enough effect; inconclusive means small, poorly fitted or top-dose-only effect, or another doubt; inactive means no such curve, though single readings can be large or run the other way;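 further: the enzyme is Sfp with the accession as filed and its product quenches rhodamine fluorescence; potency means the concentration at half of the fitted maximal effect; 0% = enzyme reaction without inhibitor and -100% = no enzyme wells; top concentration of the series not given in the record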
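Compounds were incubated with enzyme (final 15 nM) for 15 min at room temperature before substrate addition started the reaction. Fluorescence at 525 nm excitation, 598 nm emission was recorded immediately and after 30 minutes.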
* marks the source's active call; other numbers are inactive results; ? = inconclusive; / = no result given; & = joins results of further samples; [ ] = another dose, or the depositor's remark. Not a hit list; any-hit rate near 5.1%.

SMILES | PINK1 modulator | Menin-MLL FL inh | ClpP mod | D2 ag | gsp antagonist | gsp ag | Sfp PPTase inh
COc1ccc(/C=C/C(=O)NC(=S)Nc2ccc(S(=O)(=O)Nc3ccc(OC)nn3)cc2)cc1 | -0.1% | 0.3 | -3.5% | -0.1 | -3% | ? | 2%
CSc1cccc(NC(=S)N(CCC(C)C)C2CCN(C(C)C)CC2)c1 | 1.0% | -1.2 | / | -0.3 | 2% | 14% | 3%
Cc1cc(N2CCN(C)CC2)nc2ccc(NC(=S)N3CCC4(CC3)OCCO4)cc12 | -0.5% | 2.2 | / | -1.5 | -3% | 19%[15.4 µM] | 19%
CC(=O)Nc1cccc(-c2csc(NCc3ccccc3)n2)c1 | 1.5% | -1.9 | -0.9% | -2.2 | -4% | -27% | 40µM*
C[C@@H]1CN([C@H](C)CO)C(=O)c2cc(NC(=O)Nc3ccc(F)cc3)ccc2O[C@H]1CN(C)C(=O)Nc1ccc(C(F)(F)F)cc1 | 0.2% | / | 1.1% | 0.2 | -8% | / | /
O=C(CCC(=O)OCC(=O)c1ccc(-c2ccccc2)cc1)Nc1cccc(Cl)c1 | -1.3% | -0.7 | -3.6% | -6.5 | 7% | 22% | 11%
Cc1ccc(-c2cc(-c3nnc(SCC(=O)NCC(C)C)n3N)c3ccccc3n2)cc1 | 1.6% | 3.2 | ? | -1.2 | -11% | -1% | 7%
O=C(Nc1ccccc1C(=O)N1CCOCC1)C1COc2ccccc2O1 (stereo unspecified) | -0.4%[38.3 µM] | 1.9 | -1.0% | 0.4 | 4% | -1% | 5%
CCCCC(=O)NC(=S)Nc1cccc(NC(=O)CC)c1 | 1.5% | -2.9 | -0.5% | -4.1 | 9% | -4% | -10%
CCc1cc(=O)oc2cc(OCc3ccc(C(=O)O)o3)ccc12 | 1.1% | -5.5 | 4.7% | 1.5 | 10% | 42% | -9%
O=C(O)c1cc2c(cc1Br)OCCCO2 | 0.8% | 0.9 | 0.8% | -0.6 | 5% | 25% | 4%
Cc1ccc(Nc2nc(N)nc(-c3oc4ccccc4c3C)n2)cc1 | 7.6% | -4.4 | / | -6.2 | 24% | 1%[15.4 µM] | 9%
O=C(Nc1ccccc1Cl)c1ccc(S(=O)(=O)N2CCOCC2)cc1 | -1.2% | -1.0 | -2.8% | -5.4 | 10% | -29% | 3%
Cc1ccn(CCC(=O)N2CCCC(N3CCN(c4ccccc4C)CC3)C2)n1 (stereo unspecified) | 4.4% | / | -0.3% | 2.6 | / | -32%[inhibitor] | /
Cc1cc(NC(=O)CCC(=O)N(Cc2ccco2)C(C(=O)NC2CCCCC2)c2ccccc2)no1 (stereo unspecified) | 1.1% | 1.9 | 0.8% | -1.0 | -7% | 1% | 4%
O=C1CC(Cc2ccccc2)C(=O)N1c1ccccn1 (stereo unspecified) | 0.1% | 1.5 | / | 2.2 | 10% | 4%[15.4 µM] | 17%
COc1cc(CNc2cccc(C(=O)O)c2)cc(Br)c1OCC(=O)NC(C)(C)C | 2.9% | 0.6 | 25µM* | -1.2 | -4% | -11% | -6%
COC(=O)C(C(=O)OC)C(C(=O)OC)C(C(=O)OC)C(=O)OC | -1.3% | 11 | -4.0% | -1.7 | 6% | -3% | 12%
Cc1cccc(NC(=O)c2c(O)c3ccccc3[nH]c2=O)c1 | 11% | -29 | -9.2% | 5.4 | 5% | ? | -4%
O=C(/C=C\c1ccco1)Nc1cc([N+](=O)[O-])ccc1F | 3.1% | -3.8 | -0.3% | -2.0 | 15% | -2% | -6%
Cc1ccc(C(=O)N2CCCC(c3ccc(Cl)cc3)=N2)cc1 | 2.0% | 0.9 | / | 2.8 | -12% | -14% | 10%
COCCN(C(=O)COC(=O)CSc1ccc(Cl)cc1)c1c(N)n(CC(C)C)c(=O)[nH]c1=O | 3.8% | / | -1.8% | 4.3 | 5% | -13% | /
CNc1ccccc1C(=O)OCC(=O)N(CCOC)c1c(N)n(CC(C)C)c(=O)[nH]c1=O | 1.1% | / | 22µM* | 2.1 | 9% | -15% | /
CCc1nc(SCC(=O)Nc2cc(C)ccc2OC)c2c(C)c(C)sc2n1 | 13% | / | / | 1.2 | 3% | 22% | -3%
Cc1ccccc1CCNC(=O)C1CCC(=O)N(Cc2ccc(Cl)cc2)C1 (stereo unspecified) | -1.4% | / | -18% | -2.7 | -3% | -11%[15.4 µM] | 6%
Cc1ccc(CN2CCN(C(=O)CCC(=O)Nc3nnc(C(C)C)s3)CC2)c(C)c1 | 2.0% | -0.1 | 1.2% | -0.6 | 3% | ? | 7%
O=C(Cc1ccccc1)Nc1nnc(SCC(=O)NC2CCCC2)s1 | 8.8% | -0.4 | / | 0.5 | 11% | -7%[15.4 µM] | 10%
NC(=O)c1ncn([C@@H]2O[C@H](CNCc3cnc(N4CCOCC4)s3)[C@@H](O)[C@H]2O)n1 | -0.5% | / | -0.8% | -1.7 | 5% | / | /
CCOc1ccc(CCNC(=O)COC(=O)C2CCN(c3ccc(C(F)(F)F)cn3)CC2)cc1OCC | 2.2% | / | -13% | -2.6 | -5% | 4% | /
O=C(O)c1cccc(NS(=O)(=O)c2cccc(C(=O)Nc3ccccc3[N+](=O)[O-])c2)c1 | -0.4% | 3.9 | -0.1% | -1.0 | 6% | -6% | -2%
COc1ccccc1C(=O)Nc1nnc([C@H]2C[C@H](O)[C@@H](CO)O2)s1 | 2.2% | / | -16% | -0.8 | / | / | /
O=C(CSc1nnc(COc2ccc(Cl)cc2)n1Cc1ccco1)N1CCNC1=O | 2.3% | / | / | -2.7 | -8% | -19%[15.4 µM] | /
COc1ccc(C(=O)NCCCSC)cc1OC1CCN(C(C)C)CC1 | 0.9% | -4.7 | / | -2.3 | 6% | -16% | 11%
Cc1ccc(CN2CCNC2=O)cc1 | 13%[38.3 µM] | 3.6 | -2.3% | -0.2 | 4% | -1% | 14%
CCN(CC)CCN(C(=O)/C=C/c1cccs1)c1nc2ccc(OC)cc2s1 | -1.0% | / | -0.9% | -0.9 | -29% | 7% | /
Cc1ccc(S(=O)(=O)N(C)C)cc1NC(=O)COC(=O)c1ccc(Cl)cc1 | -0.3% | 2.7 | / | 1.2 | 4% | -2% | 9%
Cc1cc(C)nc(Oc2ccc(Br)cc2)n1 | 1.4% | 2.9 | -2.7% | -3.2 | -3% | -1% | 12%
CCN(CC)C(=O)CSc1nc2cc(S(=O)(=O)N3CCOCC3)ccc2n1CC | 3.5% | / | 0.3% | 3.8 | -12% | 5%[15.4 µM] | 20%
CS(=O)(=O)Nc1nnc(SCC(=O)Nc2cccc([N+](=O)[O-])c2)s1 | 3.3% | -0.8 | 1.3% | -3.1 | -1% | -42% | 14%
C[C@H]1CN(Cc2ccccc2)C(=O)[C@@H]1CC(=O)Nc1ccccc1 | 3.2% | / | -1.6% | -3.9 | / | -53%[inhibitor] | /
CCOC(=O)c1c(C)[nH]c(C(=O)OCC(=O)Nc2ccc(OC)c(Cl)c2)c1C | -2.3% | 8.0 | 1.2% | 1.9 | -3% | -17% | ?
Cc1ccc(S(=O)(=O)NC(Cc2c[nH]c3ccccc23)C(=O)O)cc1 (stereo unspecified) | -1.7% | / | 0.9% | -1.5 | -13% | -24% | /
O=C(CCSCc1ccc(Cl)cc1)NCCc1ccccc1 | 4.7%&-0.1% | -0.4 | 2.5%&-1.1% | 3.2 | -2% | -3% | 8%
COc1ccc(N(C)S(=O)(=O)c2cccc(C(=O)Nc3ccc4c(c3)OCCO4)c2)cc1 | 3.3% | -8.0 | / | 1.3 | -17% | ? | 10%
O=C(NCc1nnc(SCC(=O)N2CCN(c3ccccc3)CC2)o1)c1ccccc1 | 2.5% | / | 0.7% | -4.8 | -9% | 26% | 18%
CC(c1nc2ccccc2o1)N1C(=O)c2ccccc2C1=O (stereo unspecified) | -5.2%[38.3 µM] | 0.3 | 0.9% | 0.3 | 2% | -43%[inhibitor] | 14%
CCOC(=O)c1cccc(NS(=O)(=O)c2c(C)[nH]c(=O)[nH]c2=O)c1 | 1.6%[38.3 µM] | 1.3 | 1.0% | 0.0 | 2% | -48%[inhibitor] | 14%
COc1ccccc1C(=O)N1[C@@H](C(C)C)COc2cc(Br)ccc2S1(=O)=O | -0.5% | / | -0.4% | -3.0 | -29% | / | /
Cc1cccc(N2CN=C3SCC(=O)N3C2)c1 | 0.6% | 1.0 | 1.3% | -4.6 | 8% | -20% | 16%
O=C(c1ccccc1Cc1ccccc1)N1CCN(S(=O)(=O)c2ccccc2F)CC1 | -0.4% | / | -1.3% | 3.3 | -29% | 2% | /
Cc1ccc(/C=N/NC(=O)c2nc3nc(C)cc(C)n3n2)cc1 | -1.0% | 3.5 | -3.7% | -0.1 | 6% | 0% | -2%
COC1(C2=NCCN2)COc2ccccc2O1 (stereo unspecified) | -0.5% | -1.8 | -1.1% | -7.9 | 11% | / | /
COc1cccc(CN2CCN(c3cccc(C(F)(F)F)c3)CC2)c1OC | 2.0%[38.3 µM] | -0.2 | -5.6% | 1.9 | -24% | ? | ?
O=C(CSc1nncs1)NCc1ccc(F)cc1 | 4.8% | 0.4 | / | -2.5 | ? | -13%[15.4 µM] | 12%
CCOc1ccc(CCNC(=O)c2cccc(NC3=NC4CS(=O)(=O)CC4S3)c2)cc1OCC (stereo unspecified) | 0.4% | -1.6 | 2.0% | -4.3 | 6% | -37% | 4%
COc1ccc(C)cc1NC(=O)C(Sc1nnc2ccccn12)c1ccccc1 (stereo unspecified) | 5.5% | -1.4 | -15% | -5.4 | -10% | -38%[inhibitor] | 7%
O=C(NC(NCc1ccccc1)C(Cl)(Cl)Cl)c1cccnc1 (stereo unspecified) | -0.5% | -1.2 | -0.4% | -1.0 | -6% | -30%[inhibitor] | 9%
COCCN(C(=S)Nc1ccc(OC)cc1)C1CCN(C(C)C)CC1 | 0.3% | 1.8 | 1.8% | -2.6 | -9% | -4% | -2%
O=C(O)CCn1c(=S)oc2ccccc21 | -0.8%[38.3 µM] | 0.9 | 0.2% | -1.7 | -4% | -14% | 9%
CC(=O)NC(=S)Nc1ccc(-c2nc3ccc(C)cc3s2)cc1 | 7.0%[38.3 µM] | -0.1 | 36% | -1.3 | 3% | ? | 5%
O=C(Nc1ccc(F)cc1F)c1cccc(S(=O)(=O)N2CCCCC2)c1 | 0.0% | / | -2.0% | -3.6 | 7% | -4% | /
